Compound activity from PubChem.
CtBP-E1A inh – blocks the CtBP interaction with E1A; activity change, % (test concentration not listed); 340,000 compounds, 0.49% hits; AlphaScreen GST-E1A/His-CtBP binding, 1536-well; hits give low values; control for the full effect not named in the record; AID 651724; in the data active means activity change below about -65%; inconclusive means about -30% to -65%; inactive means above about -30%; further: on the % scale 0 is the no-effect control and ±100 the full control effect
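Homogeneous bead-based format: GST-tagged E1A captured on glutathione donor beads, His-tagged CtBP on nickel acceptor beads; compounds precede bead addition by 2 h at 37 °C.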
TRPV1 PAM – human TRPV1 potentiation; Q8NER1; TRPV1-expressing cells, Fluo-8 calcium influx, capsaicin EC20 potentiation; host cell line not named in the record; control for the full effect not named in the record; potentiation, % at 8.33 µM; 320,000 compounds, 0.02% hits; active means potentiation above 80%; inconclusive means 30% to 80%; inactive means below 30%; further: 0% is about no effect
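Fluo-8 calcium influx in TRPV1-expressing cells, kinetic read (ex 480/em 520 nm). Compound added and read 3 min for agonist activity, followed by capsaicin at EC20 final and 2 min further read for enhancement.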
D2 PAM – potentiates the human D2 dopamine receptor allosterically. P14416. DiscoveRx D2 beta-arrestin cells, luminescence, 90 min; 100% = 57 uM dopamine signal. potentiation, % (no concentration beside the values). 360,000 compounds, 0.23% hits. AID 624464; active = potentiation of 50% or more; inconclusive = 30% to 50%; inactive = 30% or less;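 further: compound concentration not given in the record; tested on top of an EC20 dose of dopamine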
Target sequence (P14416 whole entry, looked up): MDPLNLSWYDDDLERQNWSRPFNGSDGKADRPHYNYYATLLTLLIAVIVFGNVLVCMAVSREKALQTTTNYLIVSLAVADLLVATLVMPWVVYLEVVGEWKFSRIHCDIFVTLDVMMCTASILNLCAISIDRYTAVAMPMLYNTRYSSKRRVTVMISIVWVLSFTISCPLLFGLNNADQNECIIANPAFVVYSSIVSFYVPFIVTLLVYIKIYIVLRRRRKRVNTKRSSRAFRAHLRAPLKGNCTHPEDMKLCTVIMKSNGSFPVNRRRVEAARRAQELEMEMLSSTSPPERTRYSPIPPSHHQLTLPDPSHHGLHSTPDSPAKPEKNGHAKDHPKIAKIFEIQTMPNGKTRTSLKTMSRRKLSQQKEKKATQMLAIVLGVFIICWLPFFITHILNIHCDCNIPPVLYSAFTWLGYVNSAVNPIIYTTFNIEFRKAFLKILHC
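D2 cells co-treated with compound plus 50 nM dopamine (EC20) for 90 min at 37 deg C to detect potentiation. Beta-arrestin recruitment was read as enzyme-fragment luminescence after 1 h at ambient temperature. Full response was set by 57 uM dopamine.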
TRPML1 agonist – human mucolipin-1 channel agonism | Q9GZU1 | TRPML1-expressing cells, Ca2+ dye fluorescence, FDSS; host cell line not named in the record; reference of the full effect not given here | activation, % (test concentration not listed) | 410,000 compounds, 0.12% hits | AID 624414; in the data active = activation above about 50%; inconclusive = about 30% to 50%; inactive = below about 30%; further: 0% is about no effect; the text of the record puts the active cut at 80%
Target sequence (Q9GZU1 whole entry, looked up): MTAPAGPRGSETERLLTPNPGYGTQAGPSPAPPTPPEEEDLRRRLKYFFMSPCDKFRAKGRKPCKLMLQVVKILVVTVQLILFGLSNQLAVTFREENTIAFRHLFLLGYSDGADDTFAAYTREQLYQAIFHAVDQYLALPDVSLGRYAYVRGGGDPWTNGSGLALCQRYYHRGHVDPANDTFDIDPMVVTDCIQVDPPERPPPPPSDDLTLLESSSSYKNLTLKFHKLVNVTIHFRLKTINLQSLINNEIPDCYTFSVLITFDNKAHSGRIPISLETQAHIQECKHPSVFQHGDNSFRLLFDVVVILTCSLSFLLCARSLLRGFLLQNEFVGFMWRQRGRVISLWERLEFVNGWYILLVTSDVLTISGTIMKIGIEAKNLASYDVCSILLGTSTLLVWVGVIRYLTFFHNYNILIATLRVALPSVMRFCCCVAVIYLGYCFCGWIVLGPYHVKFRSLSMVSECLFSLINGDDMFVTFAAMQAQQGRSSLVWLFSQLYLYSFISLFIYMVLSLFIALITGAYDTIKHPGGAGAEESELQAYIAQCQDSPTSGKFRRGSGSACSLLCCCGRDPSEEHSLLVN
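Agonist activity was taken from a 110 s kinetic Ca2+ dye read on the FDSS after pinning compounds onto TRPML1-DL cells. The cells were seeded at 1,500/well with Tet inducer, incubated about 16 h, then dye-loaded at room temperature.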
Six1-Eya2 inh – inhibitors of human Six1/Eya2 interaction. 360,000 compounds, 0.56% hits. Q15475+O00167. activity change, % (concentration not given with the values). AlphaScreen GST-Six1/His-Eya2 binding, biochemical; hits give low values; control for the full effect not named in the record. AID 651725; in the data active = activity change below about -65%; inconclusive = about -30% to -65%; inactive = above about -30%; further: on the % scale 0 is the no-effect control and ±100 the full control effect
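GST-Six1 + His-Eya2 (5X stock: 250/500 nM); Tris pH 8.0, 300 mM NaCl, 0.05% BSA, 0.02% Tween 20; GSH donor/Ni acceptor beads; 1 h 37 °C dark; AlphaScreen readout.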
TRPML1 inh – blocks the human TRPML1 channel. Q9GZU1. TRPML1-inducible cells, Ca2+ dye fluorescence, FDSS; hits give low values; inhibition of EC80 agonist-evoked calcium signal. activity change, negative = inhibition, % (concentration not given with the values). 390,000 compounds, 0.02% hits; in the data active means activity change below about -50%; inconclusive means about -30% to -50%; inactive means above about -30%;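 further: stimulus is agonist 54-4 at its EC80 concentration; on the % scale 0 is the no-effect control and ±100 the full control effect; the text of the record puts the active cut at -80%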
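TRPML1-DL cells, Tet-induced overnight (~16 h, 37 °C) at 1,500 cells/well, were loaded with Ca8 no-wash dye plus quencher for 45-90 min at room temperature. Compounds were pinned during FDSS kinetic reading; agonist 54-4 at EC80 (4 uM final) then added.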
* hit, by the source's call; & = joins results of further samples.

Screening CN(CC(=O)O/N=C(\N)c1ccc([N+](=O)[O-])cc1)S(=O)(=O)c1ccccc1 returned CtBP-E1A inh -1.7, TRPV1 PAM 4.9, D2 PAM 12.9, TRPML1 agonist 1.2, Six1-Eya2 inh -26.2 and TRPML1 inh 41.4.
`CCCC1(C(=O)OC)NC(c2ccc(OC)c(OC)c2)C2C(=O)N(c3ccc4c(c3)OCO4)C(=O)C21` (centres undefined) gave CtBP-E1A inh -1.4, TRPV1 PAM -5.9, D2 PAM -5.6, TRPML1 agonist 0.3, Six1-Eya2 inh 2.8 and TRPML1 inh 20.5.
Screening O=C(c1cccc(Cl)c1)N1CCN(c2ccc3c(c2)C2CC3CCN2C(=O)OCc2ccccc2)CC1 (centres undefined) returned CtBP-E1A inh -29.1, D2 PAM -5.3, TRPML1 agonist -0.4 and Six1-Eya2 inh inconclusive.
Cc1c(NC(=O)COc2cccc(F)c2)c(=O)n(-c2ccccc2)n1C was read as CtBP-E1A inh 12.6, TRPV1 PAM 2.6, D2 PAM 16.5, TRPML1 agonist -0.5, Six1-Eya2 inh 8.6 and TRPML1 inh -10.5.
Screening O=S(=O)(NCC(c1ccco1)N1CCCCC1)c1ccccc1C(F)(F)F (centres undefined) returned CtBP-E1A inh -13.8, TRPV1 PAM -9.2, D2 PAM -3.9, TRPML1 agonist 3.4, Six1-Eya2 inh -15.7 and TRPML1 inh -21.7.
COc1ccccc1NC(=O)CCC(=O)N1CC(C)Oc2ccc(C)cc21 (centres undefined) was read as CtBP-E1A inh -1.8, TRPV1 PAM -12.3, D2 PAM -5.1, TRPML1 agonist 0.5&3.3, Six1-Eya2 inh 3.4 and TRPML1 inh 12.4&11.2.
`CCN1CCCC1CNC(=O)C(=O)NC1CC1` (centres undefined) gave CtBP-E1A inh 8.1, TRPV1 PAM 4.8, D2 PAM 1.1, TRPML1 agonist -0.6, Six1-Eya2 inh -2.5 and TRPML1 inh 16.6.
Cc1ccc(NC(=O)CN(C)CC(=O)Nc2cccc(F)c2)cc1S(=O)(=O)N1CCCCCC1 was read as CtBP-E1A inh 1.6, TRPV1 PAM 6.9, D2 PAM 5.9, TRPML1 agonist -0.4, Six1-Eya2 inh 1.8 and TRPML1 inh 3.6.
For COc1ccc(CCNC(=O)C(C)c2ccc([N+](=O)[O-])cc2)cc1 (centres undefined) the results were CtBP-E1A inh -18.6, TRPV1 PAM -9.1, D2 PAM 0.6, TRPML1 agonist 8.2, Six1-Eya2 inh 5.2 and TRPML1 inh -10.7.
For COc1ccccc1CNCc1cc(=O)oc2c(C)c(C)ccc12 the results were CtBP-E1A inh -5.4, TRPV1 PAM -0.1, D2 PAM -5.5, TRPML1 agonist 1.7, Six1-Eya2 inh 6.8 and TRPML1 inh 29.7.
CCn1c(SCC(=O)Nc2ccc(C(=O)OC)cc2)nnc1-c1cccs1 was read as CtBP-E1A inh 3.3, TRPV1 PAM -3.4, D2 PAM -34.6, TRPML1 agonist -1.0, Six1-Eya2 inh 0.8 and TRPML1 inh 5.2.
`CC[N+](CC)(CC(=O)Nc1c(C)cccc1C)Cc1ccccc1` gave CtBP-E1A inh 1.4, D2 PAM -15.6, TRPML1 agonist -0.6, Six1-Eya2 inh 0.9 and TRPML1 inh 6.6.

In the list so far, 3 contain fluorine:
Cc1c(NC(=O)COc2cccc(F)c2)c(=O)n(-c2ccccc2)n1C was read as CtBP-E1A inh 12.6, TRPV1 PAM 2.6, D2 PAM 16.5, TRPML1 agonist -0.5, Six1-Eya2 inh 8.6 and TRPML1 inh -10.5.
Screening O=S(=O)(NCC(c1ccco1)N1CCCCC1)c1ccccc1C(F)(F)F (centres undefined) returned CtBP-E1A inh -13.8, TRPV1 PAM -9.2, D2 PAM -3.9, TRPML1 agonist 3.4, Six1-Eya2 inh -15.7 and TRPML1 inh -21.7.
Cc1ccc(NC(=O)CN(C)CC(=O)Nc2cccc(F)c2)cc1S(=O)(=O)N1CCCCCC1 was read as CtBP-E1A inh 1.6, TRPV1 PAM 6.9, D2 PAM 5.9, TRPML1 agonist -0.4, Six1-Eya2 inh 1.8 and TRPML1 inh 3.6.

Next part.
For O=C(Nc1ccc(Cl)cc1)Nc1nnc(-c2ccncc2)s1 the results were CtBP-E1A inh 20.8, TRPV1 PAM -0.2, D2 PAM -18.0, TRPML1 agonist 0.1, Six1-Eya2 inh 7.4 and TRPML1 inh -0.3.
`COc1cccc(OCCc2c(C)n[nH]c2C)c1` gave CtBP-E1A inh 40.8, TRPV1 PAM -0.4, D2 PAM -3.9, TRPML1 agonist 0.6, Six1-Eya2 inh 18.7 and TRPML1 inh 0.3.
For Cc1ccc(-n2ncc3c2CCCC3NC(=O)c2csnn2)cc1C (centres undefined) the results were CtBP-E1A inh -1.8, TRPV1 PAM -4.7, D2 PAM -13.2, TRPML1 agonist 0.3, Six1-Eya2 inh -12.6 and TRPML1 inh inconclusive.
O=C(NNC1=NS(=O)(=O)c2ccccc21)c1ccc(Cl)cc1 was read as TRPV1 PAM 4.6, D2 PAM -36.4, TRPML1 agonist 2.0, Six1-Eya2 inh 0.6 and TRPML1 inh -1.2.
Cc1ccc(Nc2nc(Cl)nc(NC(C)(C)C)n2)cc1 was read as TRPV1 PAM -7.1, D2 PAM -5.2, TRPML1 agonist 3.0, Six1-Eya2 inh -1.2 and TRPML1 inh 15.8.
Screening CCOC(=O)N1N=C(c2ccc(C)cc2)CC1(O)C(F)(F)F (centres undefined) returned CtBP-E1A inh 9.4, TRPV1 PAM -1.6, D2 PAM 3.4, TRPML1 agonist 0.5, Six1-Eya2 inh -1.0 and TRPML1 inh 0.3.
COc1ccc2[nH]c3nc(SCc4nnc(-c5ccccc5)o4)nnc3c2c1 was read as CtBP-E1A inh -9.1, TRPV1 PAM 4.5, D2 PAM 3.3, TRPML1 agonist 1.6, Six1-Eya2 inh -22.8 and TRPML1 inh -4.3.
Screening CCCCn1c(-c2csc3ccccc23)n[nH]c1=S returned CtBP-E1A inh 1.0, TRPV1 PAM 3.5, D2 PAM -24.9, TRPML1 agonist 1.1, Six1-Eya2 inh 1.4 and TRPML1 inh 10.4.
Screening COc1ccc(/C=C/C(=O)OCc2cc(=O)n3c(n2)sc2ccccc23)cc1 returned CtBP-E1A inh -20.9, TRPV1 PAM 9.9, D2 PAM -1.3, TRPML1 agonist -0.9, Six1-Eya2 inh 3.6 and TRPML1 inh 10.7.
`CC(C(=O)N1CCc2ccccc21)N1CCN(Cc2ccccc2)CC1` (centres undefined) gave TRPV1 PAM -21.0, D2 PAM -14.3, TRPML1 agonist 1.0, Six1-Eya2 inh 3.5 and TRPML1 inh -5.9.
Screening CC1CCCCN1c1ncnc2ccccc12 (centres undefined) returned CtBP-E1A inh -15.9, TRPV1 PAM -3.9, D2 PAM 10.4, TRPML1 agonist 0.1, Six1-Eya2 inh -10.7 and TRPML1 inh 1.9.
CCCS(=O)(=O)c1ccc(COC(=O)c2ccc(NC(C)=O)cc2)cc1 was read as CtBP-E1A inh -2.7, TRPV1 PAM 1.2, D2 PAM -27.2, TRPML1 agonist 0.1, Six1-Eya2 inh 20.1 and TRPML1 inh -9.9.
For C=CCOc1ccc(/C(CC)=N/O)cc1OC the results were CtBP-E1A inh -1.9, TRPV1 PAM 5.1, D2 PAM 1.6, TRPML1 agonist -0.4, Six1-Eya2 inh -0.4 and TRPML1 inh 3.2.
C[C@@H]1CN([C@@H](C)CO)C(=O)CCCn2cc(nn2)CO[C@H]1CN(C)S(=O)(=O)c1ccc(Oc2ccccc2)nc1 was read as CtBP-E1A inh 2.1, D2 PAM 2.5, TRPML1 agonist -0.7, Six1-Eya2 inh 3.3 and TRPML1 inh 16.1.
For COc1ccc(OC)c(NC(=O)[C@H]2CC=CC[C@H]2C(=O)O)c1 the results were CtBP-E1A inh 10.1, TRPV1 PAM 2.8, D2 PAM 0.3, TRPML1 agonist -0.7, Six1-Eya2 inh 1.1 and TRPML1 inh -7.8.
`O=C(Nc1ccc(N2CCOCC2)c(Cl)c1)C1CCCCC1` gave CtBP-E1A inh 3.5, TRPV1 PAM -19.0, D2 PAM -10.3, TRPML1 agonist -0.8, Six1-Eya2 inh 2.9 and TRPML1 inh 1.3.
Screening CSc1nc(N)nc2c1ncn2CC(=O)N1CCN(c2ccccn2)CC1 returned CtBP-E1A inh -13.2, D2 PAM -8.1, TRPML1 agonist -0.4, Six1-Eya2 inh 8.8 and TRPML1 inh 1.4.
Screening Cc1ccc(CNC(=O)COC(=O)CN2C(=O)C3CC=CCC3C2=O)cc1 (centres undefined) returned CtBP-E1A inh 6.2, D2 PAM 3.2, TRPML1 agonist 0.3, Six1-Eya2 inh 1.7 and TRPML1 inh 1.6.
`Cc1cccc(N(CC(=O)NCc2ccco2)C(=O)CCC(=O)Nc2ccccn2)c1C` gave CtBP-E1A inh -13.3, TRPV1 PAM -8.8, D2 PAM -6.5, TRPML1 agonist -0.3, Six1-Eya2 inh 1.7 and TRPML1 inh 7.3.
`O=C(CS(=O)(=O)c1ccccc1)Nc1ccc(N2CCOCC2)cc1` gave CtBP-E1A inh 0.0, TRPV1 PAM 4.1, D2 PAM -12.9, TRPML1 agonist -0.2, Six1-Eya2 inh 13.5 and TRPML1 inh -0.1.
CCn1c(SCC(=O)Nc2cccc(NC(=O)c3cccs3)c2)nnc1-c1ccncc1 was read as CtBP-E1A inh -1.6, TRPV1 PAM 4.2, D2 PAM 0.2, TRPML1 agonist 1.5, Six1-Eya2 inh -10.9 and TRPML1 inh 19.8.
For CCN(CC)CCCn1c2c(c(SCC(=O)Nc3cc(C)cc(C)c3)nc1=O)CCC2 the results were CtBP-E1A inh 0.9, D2 PAM -22.4, TRPML1 agonist 0.1, Six1-Eya2 inh -4.2 and TRPML1 inh 5.3.
For Cc1cc(C)c(C#N)c(Cl)n1 the results were CtBP-E1A inh 7.3, TRPV1 PAM inconclusive, D2 PAM -2.8, TRPML1 agonist 0.0, Six1-Eya2 inh 11.8 and TRPML1 inh -11.7.
For Cc1cc(O)c(C(=O)/C=C/c2ccccc2)c(=O)o1 the results were CtBP-E1A inh 9.9, TRPV1 PAM -3.6, D2 PAM -2.2, TRPML1 agonist 1.2, Six1-Eya2 inh -3.5 and TRPML1 inh 26.1.
For O=S1(=O)CC(N2CCCC2)CN1Cc1cn(Cc2ccccc2)nn1 (centres undefined) the results were CtBP-E1A inh 1.9, TRPML1 agonist -0.9 and Six1-Eya2 inh 1.5.
Cc1nn(-c2cccc(Cl)c2)c(Cl)c1/C=N/NC(=O)c1cccnc1 was read as TRPV1 PAM 0.8, D2 PAM 6.1, TRPML1 agonist 1.5, Six1-Eya2 inh -3.4 and TRPML1 inh 21.7.
CC(C)OCCCNC(=O)CCCC(=O)Nc1ccc(OCCc2ccccc2)cc1 was read as CtBP-E1A inh 11.7, TRPV1 PAM -0.4, D2 PAM -2.0, TRPML1 agonist -0.1, Six1-Eya2 inh -2.5 and TRPML1 inh -21.2.
CC(C)(C)Nc1nc(Oc2ccc(=O)n(-c3ccccc3)n2)nc(N2CCOCC2)n1 was read as CtBP-E1A inh 1.3, TRPV1 PAM -17.8, D2 PAM -1.9, TRPML1 agonist 1.0, Six1-Eya2 inh 12.1 and TRPML1 inh 28.8.
